StopGo RLuc: lowers the Renilla signal of an FMDV 2A StopGo reporter; HEK cells with a luciferase reporter of 2A StopGo recoding; Potency, µM (doses to about 57.5 µM), without a hit: at the top dose signal change, negative = less light; 120,000 tested, 0.32% active; active means well fitted falling curve with a large enough effect; inconclusive means small, poorly fitted or top-dose-only effect; inactive means no such curve, though single readings can be large or run the other way; note: nearly all actives have a fitted effect of over 55% in size; overnight with compound
2A firefly: FMDV 2A StopGo reporter, firefly signal; HEK cells with a luciferase reporter of 2A StopGo recoding; Potency, µM (series often up to 57.5 µM), for the others: at the top dose signal change, negative = less light; 120,000 tested, 0.23% active; AID 1745856; active = well fitted falling curve with a large enough effect; inconclusive = small, poorly fitted or top-dose-only effect; inactive = no such curve, though single readings can be large or run the other way; note: nearly all actives have a fitted effect of over 60% in size; overnight with compound
Active calls of the source: *; ? = inconclusive; & = joins results of further samples; [ ] = another dose, or the depositor's remark. % is set by controls: 0 for no effect and ±100 for the full control effect; potency is the fitted concentration of half-maximal effect. A portion of the library. The share of hits here may be higher or lower than overall.

SMILES	StopGo RLuc	2A firefly
O=C(CCCN1CCC(O)(c2cccc(C(F)(F)F)c2)CC1)c1ccc(F)cc1	-24.4%	-32.0%
Cc1cccc(C(=O)Nc2ccc(NC(=S)NC(=O)c3cccc(Cl)c3)cc2)c1	-5.8%	-2.1%
COC(=O)CN(Cc1cccs1)CC1CCCO1 (stereo unspecified)	-7.9%	2.2%
CCc1ccc(CNC(=O)c2ccc(Cn3c(=O)c4cccn4c4cccnc43)cc2)cc1	-8.4%	-15.1%
Cc1ccc2nc(/C(C#N)=C/c3ccc(-c4cccc(Cl)c4)o3)[nH]c2c1	13.8%&13.6%	33.8%&0.0%[activator]
COc1ccc(CCNC(=O)Cn2nc(-c3cccs3)c3ccccc3c2=O)cc1	-9.6%	-8.7%
O=C(c1ccc2c(c1)N(Cc1ccc(F)cc1)C(=O)c1ccccc1S2=O)N1CCC(Cc2ccccc2)CC1 (stereo unspecified)	?	?
Cc1ccc(C)c(N2CCN(c3ncnc4c3nc3n4CCCCC3)CC2)c1	-4.4%	-7.3%
CCOc1ccccc1NC(=O)CSc1nnc2[nH]c(=O)cc(C)n12	-2.8%	-4.4%
COc1ccc(CCCc2nnc(SCC(=O)Nc3ccc(C)cc3C)o2)cc1	11.5%	4.7%
COc1cc(Cl)c(C)cc1NC(=O)Cn1ncc2c1-c1cc(C)ccc1OC2	-17.5%	-11.4%
O=C(NCc1ccccc1)c1ccccc1CSc1nc2ccccc2o1	38.7%[activator]	0.0%
Cc1ccccc1NC(=O)CSc1nnc(-c2cccs2)o1	-5.4%	57.5%[activator]
O=C1CSc2ccc(S(=O)(=O)N3CCOCC3)cc2N1	-11.3%	-5.4%
O=S(=O)(Nc1cccc(C(F)(F)F)c1)c1ccc(NS(=O)(=O)c2ccc3c(c2)OCCO3)cc1	288.9%[activator]	2.9%
CCCCN(C)CCCNC(=O)Cn1ncc2c3ccccc3n(Cc3ccccc3)c2c1=O	-7.9%	2.9%
CCOC(=O)c1sc2ncn(CC(=O)Nc3ccc(OCC)cc3)c(=O)c2c1C	-17.4%	-32.2%
CC(C)(CNC(=O)c1ccco1)CNC(=O)c1ccco1	-1.5%[1.06 µM]	22.5%
CCCCNC(=O)CSc1nc2cc3c(cc2c(=O)n1CCCC(=O)NCCc1ccc(OC)c(OC)c1)OCO3	-13.1%	-19.4%
Cc1cn2c(=O)cc(COc3ccccc3NC(=O)c3ccc(C(C)(C)C)cc3)nc2s1	-9.0%	-2.5%
Cc1ccc(S(=O)(=O)N(CCc2ccccc2)CC(=O)Nc2ccc(Br)cc2)cc1	2.3%	0.5%
COc1ccc(NC(=O)c2cc(Br)c(O)c(OC)c2)cc1	-6.5%	22.4%
COc1cc(/C=C/C(=O)c2ccc(C3CCCCC3)cc2)cc(Br)c1O	6.3%	47.3%[activator]
CCN1CCCC1CNC(=O)c1cc(S(=O)(=O)CC)c(N)cc1OC (stereo unspecified)	-3.6%	-13.1%
O=C(OCc1ccc(-c2ccccc2)cc1)c1ccc(CO)cc1	26.5%	65.1%[activator]
Cc1ccc(S(=O)(=O)N2CCCc3cc(NS(=O)(=O)c4ccc(C)c(C)c4)ccc32)cc1	237.3%[activator]	-8.5%
O=C(Cn1c(=O)c2c(ncn2C2CCCC2)n(Cc2ccccc2)c1=O)N1CCOCC1	-17.6%	-10.8%
CCOc1ccc(NC(=O)Cn2c(=O)n(-c3ccccc3)c(=O)c3c4c(sc32)CCCC4)cc1	-3.8%	-14.9%
O=C(O)CCc1cccc(Br)c1	1.6%	-3.9%
CC1=CC(C)(C)SC(N)=N1	13.4%	10.8%
O=C(Cn1nc(Cc2ccncc2)c2ccccc2c1=O)Nc1ccc(Oc2ccccc2)cc1	-8.2%	13.4%
Cc1c(C(=O)OCc2ccccc2)[nH]c2c1C(=O)CC(c1ccc(Cl)cc1)C2 (stereo unspecified)	3.5%	16.7%
COC(=O)c1ccc(COc2cccc(C=O)c2)o1	19.7%	0.0%
CCC(CC)c1nn2c(=O)cc(COc3ccc(NC(=O)c4cccc(C)c4)cc3)nc2s1	-2.4%	-19.1%
COc1ccccc1Nc1c2c(nc3ccc(NC(=O)c4cccc(OC)c4OC)cc13)CCCC2	-10.1%	?
CC(=O)c1c(C)cc(C)c(COC(=O)c2ccccn2)c1C	-1.6%	-9.6%
CCn1nc(-c2ccc(C)c(S(=O)(=O)N3CCCC3)c2)c2c(c1=O)CCCC2	28.5%	-3.0%
O=[N+]([O-])c1cc(-c2nc(-c3ccncc3)no2)ccc1NCc1ccccc1	1.9%	34.8%[activator]
COC(=O)CCn1c(SC(C)C(=O)c2ccc(F)c(F)c2)nc2ccccc2c1=O (stereo unspecified)	?	10.4%
CNC(=O)C1CCC(Cn2c(=O)[nH]c3ccsc3c2=O)CC1 (stereo unspecified)	-8.9%	-19.9%
CCCCn1nc(C(=O)NCCN2CCOCC2)c2ccccc2c1=O	2.6%	-7.8%
C[C@@H](CN(C)C)CN1c2ccccc2Sc2ccccc21	-15.8%	-19.2%
CCOC(=O)C(C)N1C(=O)S/C(=C/c2cn(CC(=O)OC)c3ccccc23)C1=O (stereo unspecified)	-9.2%	-5.9%
CCOC(=O)C(NC=O)C(OC(=O)CC1c2ccccc2-c2ccccc21)c1ccccc1 (stereo unspecified)	26.3%	8.7%
Cc1cccc(C)c1OCc1nc2c3cnn(-c4cccc(F)c4)c3ncn2n1	-3.2%	-22.2%
COc1ccc(CNC(=O)c2ccc(NC(=O)N3CCCCc4ccccc43)cc2)c(OC)c1	-7.0%	-7.7%
Cc1nc(-c2ccc(S(=O)(=O)Nc3ccccc3)cc2)co1	33.3%[activator]	-0.6%
CSc1ccc(CCNS(=O)(=O)c2ccc3c(c2)C(C)(C)C(=O)N3C)cc1	250.0%[activator]	1.6%
CCOc1ccc(NC(=O)c2cc3cc(OCC)ccc3n2C)cc1	5.4%	10.9%
CC(C)NC(=O)NC(=O)CSC1=Nc2ccccc2CS1	-8.1%	18.4%
COc1ccccc1CNC(=O)c1ccc(N2CCCC2)c(NC(=O)NCc2ccc(F)cc2)c1	16.0%	3.9%
O=C(Nc1ncc(Cc2ccc(Cl)cc2)s1)c1ccc2c(c1)CC(c1ccccc1)OC2=O (stereo unspecified)	0.8%	-4.6%
N#Cc1nc(C2CC2)oc1N1CCN(CC(=O)NC(=O)NC2CCCC2)CC1	10.5%	31.0%[activator]
COc1ccccc1CNC(=O)c1ncoc1-c1cccc(C)c1	0.0%	128.5%[activator]
O=C(c1cc2c(F)cccc2s1)N1CCCC1Cc1ccccc1 (stereo unspecified)	30.7%[activator]	130.0%[activator]
CCc1ccccc1NC(=O)N(C)CCc1c(C)nn(C)c1C	2.6%	-0.9%
COc1ccccc1OCCCCn1c(-c2ccc(Cl)cc2)nc2ccccc2c1=O	-9.7%	35.8%[activator]
CCc1cccc(NC(=O)Cc2cn(C)c3ccccc23)c1	58.1%[activator]	23.7%
CC(NC(=O)c1ccc2c(c1)NC(=O)CO2)c1cccs1 (stereo unspecified)	16.5%	12.5%
CCN(CC)S(=O)(=O)c1cc(-c2n[nH]c(=O)c3ccccc23)ccc1C	-11.0%	-25.3%

Other results follow:
SMILES	StopGo RLuc	2A firefly
CCc1ccc(Cc2cnc(NC(=O)c3ccc4c(c3)CC(c3ccccc3)OC4=O)s2)cc1 (stereo unspecified)	-5.8%	2.8%
COc1ccc(C(=O)N(CC#N)C2CC2)cc1OC	-2.6%	2.8%
O=C1CCCC2=C1C(c1ccc(Cl)cc1)c1c([nH]n(-c3ccccc3)c1=O)N2 (stereo unspecified)	284.0%[activator]	54.1%[activator]
COc1ccc(/C=C/c2cc(C(=O)O)c3ccccc3n2)cc1O	-6.7%	0.0%
Cc1nc2scc(C)n2c(=O)c1S(=O)(=O)N1CCN(c2cccc(C(F)(F)F)c2)CC1	-21.5%	-15.6%
Cc1cccnc1NC(=O)c1cc(-c2cccs2)nc2ccccc12	31.6%[activator]	39.3%[activator]
COc1ccc(Cn2cc(S(=O)(=O)c3ccc(C)cc3)c(=O)c3cc(F)ccc32)cc1	9.1%	-6.9%
COc1ccc(CN2COc3ccc4c(oc(=O)c5ccccc54)c3C2)cc1OC	-6.4%	-5.7%
COc1ccc(CCNC(=O)C(C)n2nc(C)c3sc4ccccc4c3c2=O)cc1OC (stereo unspecified)	-1.4%	-7.3%
O=C(Nc1ccc(F)cc1F)c1cc2nc(-c3ccco3)cc(C(F)(F)Cl)n2n1	-14.1%	-14.9%
Cc1csc(CNC(=O)c2scnc2C)n1	12.3%	19.8%
CC(C)(C)NC(=O)c1cccc(NC(=O)c2ccc(Cl)cc2Cl)c1	12.1%	0.0%
COc1ccccc1CNC(=O)c1cc2c(-c3ccc(Cl)cc3)nn(C)c2s1	-0.2%	-16.2%
COc1ccccc1-c1nc(Cn2nnc(C(=O)NCc3ccc(Cl)cc3)c2N)c(C)o1	-9.7%	-13.4%
COc1ccc(NC(=O)c2nn(C)c3c2CS(=O)(=O)c2ccccc2-3)cc1Cl	8.4%	1.8%
O=C(CCCc1c[nH]c2ccccc12)N1CCN(CC(=O)N2CCCC2)CC1	-1.9%	12.1%
COC(=O)c1cc2oc3ccccc3c2n1Cc1ccccc1Cl	-7.7%	0.0%
O=C(Cn1cc(S(=O)(=O)Cc2ccccc2F)c2ccccc21)Nc1ccc(F)c(Cl)c1	?	?
Cc1c(-c2ccc(Cl)cc2)c(=O)oc2c(CN3CCOCC3)c(O)ccc12	0.3%	-28.8%
Cc1cccnc1NC(=O)C1CC(=O)N(Cc2ccc(F)cc2)C1 (stereo unspecified)	1.7%	9.0%
Cn1c(=O)n(CCCc2ccccc2)c(=O)c2c1nc1n2CCN1c1ccc(F)cc1	-14.2%	-5.9%
COc1cccc(C(=O)NC2CC(=O)N(c3ccc(Cl)cc3)C2)c1OC (stereo unspecified)	-2.7%	-4.5%
Cc1cccc(-c2ocnc2C(=O)Nc2cccc(C)c2C)c1	-5.2%	19.2%
NC(=O)C1CCN(Cc2nc3cc(Cl)ccc3c(=O)[nH]2)CC1	-1.7%	-1.6%
O=C(CSC1=Nc2ccccc2C2=NC(Cc3ccccc3)C(=O)N12)Nc1ccccc1C(F)(F)F (stereo unspecified)	165.3%[activator]	-12.4%
COc1ccc2c(c1)c1c(c(=O)n(Cc3ccccc3)c(=O)n1Cc1ccccc1)n2C	-0.7%	-9.5%
CCc1cccc(NC(=O)CCNS(=O)(=O)c2cccc3nonc23)c1	205.2%[activator]	12.9%
COc1ccc(CNC(=O)C2=CC(c3cccc(OC)c3)=NS(=O)(=O)N2C)cc1	-15.0%	-18.5%
CC1CCC(c2nnc(-c3ccc(Br)cc3)o2)CC1 (stereo unspecified)	0.4%	121.3%[activator]
CCCC(=O)Nc1nc2c(s1)CC(C(C)(C)C)CC2 (stereo unspecified)	39.0%[activator]	243.3%[activator]
CCN(CC)CCNc1nc2c(c(=O)n(C)c(=O)n2C)n1Cc1ccc(Cl)cc1Cl	-4.6%	11.2%
COc1ccc(SCC(=O)NC2CCC(O)CC2)cc1 (stereo unspecified)	1.2%	21.2%
COc1ccc(NC(=O)c2ccccc2NC(=O)CSc2nc3ccc(C)cc3[nH]2)cc1	25.4%	0.0%
Cc1ccc(CNC(=O)C2(c3cccs3)CCOCC2)cc1	27.1%	21.2%
N#Cc1c(-c2ccccc2)cc(-c2ccccc2)c(C#N)c1N	0.3%	-0.3%
CCCCNc1nc2ccccc2c2nc(-c3ccccc3)nn12	-12.8%	-10.5%
NC(CSCC(=O)O)C(=O)O (stereo unspecified)	6.7%	-6.7%[11.5 µM]
Cc1[nH]c2ccccc2c1C(=O)C(=O)N1CCCC(NC(=O)C(C)C)C1 (stereo unspecified)	22.7%	5.2%
CC(C)OCCCNC(=O)c1ccc2c(c1)NC(=O)c1ccccc1S2	?	?
CCOC(=O)c1oc2cc(OC(C)=O)ccc2c(=O)c1-c1ccc(OC)c(OC)c1	44.9%[activator]	37.1%[activator]
Cc1n[nH]c(C)c1S(=O)(=O)Nc1cccc([N+](=O)[O-])c1	128.0%[activator]	0.0%
